Rce1 inh: inhibitors of yeast Ras-converting enzyme | yeast membranes, quenched prenylated peptide cleavage fluorescence | calls only | 0.27% of 290,000 active | AID 2563;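 active = fall in fluorescence gain of 50% or more versus controls, with final raw signal at or below 3038400; inconclusive = same 50% fall but final raw signal above 3038400; inactive = fall in fluorescence gain under 50%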;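 also: plate controls were neutral control wells for no effect and wells lacking membranes for full effect; tested at 10 µM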
Target sequence (Q03530 whole entry, looked up): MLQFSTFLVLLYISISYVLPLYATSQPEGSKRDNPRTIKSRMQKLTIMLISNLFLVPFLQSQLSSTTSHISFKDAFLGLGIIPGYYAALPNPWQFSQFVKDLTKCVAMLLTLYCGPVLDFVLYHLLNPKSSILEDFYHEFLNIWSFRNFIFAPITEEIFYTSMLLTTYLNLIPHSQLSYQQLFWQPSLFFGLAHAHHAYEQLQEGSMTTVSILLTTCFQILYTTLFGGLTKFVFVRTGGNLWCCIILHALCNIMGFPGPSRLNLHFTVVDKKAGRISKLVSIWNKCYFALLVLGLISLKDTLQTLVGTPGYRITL
Yeast UUG start: modulators of start codon recognition fidelity in yeast | S. cerevisiae UUG-firefly luciferase reporter, luminescence/redox ratio | activity score, % at 18.7 µM | 0.13% of 350,000 active;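 active = replicate mean at a twofold rise or more, about +100% in these data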;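 also: firefly luciferase made from a UUG start codon reports start codon fidelity; reporter light over untreated wells divided by growth signal over untreated wells; some hits fall short of that in this replicate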
CSC inhib: blocks cancer stem cells; cancer stem cell-like cells viability, luminescence; inhibition, % at 7.5 µM; 1.1% of 300,000 active;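 active = mean at 75% or more and at least half the replicates too; inconclusive = mean and replicates disagree; tested in HMLE shEcad cells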;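 also: 0% = median of negative and 100% = median of positive control wells; the first replicate is given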
Env fusion inh: blocks HIV Env-driven cell-cell fusion; HeLa-JRFL Env/CEM21 cell fusion, luciferase; inhibition, % at 12.3 µM; 1.1% of 360,000 active; AID 651610;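 active = mean replicate inhibition score of at least 50 and every replicate individually at or above 50; inconclusive = only one of the two criteria met; inactive = mean below 50 and not all replicates reaching 50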;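 also: 0% = plate neutral controls and 100% = maraviroc near 300 nM; one replicate is shown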
MT1-MMP act inh: MT1-MMP (human) activation inhibition; P50281; HT1080 RFP-PRO-GFP cells, GFP/RFP ratio fluorescence, overnight; percent of plate control window, DMSO zero; GFP/RFP ratio change, % at 20 µM; 0.061% of 360,000 active;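 active = GFP/RFP ratio change of at least 30% with cell ATP level not reduced by more than half and red fluorescence within 50% of control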; also: strong numbers were not always called active
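Assay system – RFP-PRO-GFP reporter HT1080 cells · Compound dosing – single dose of 20 µM compound, 1% DMSO final · Incubation – overnight compound exposure at 37 °C · Measure – GFP/RFP fluorescence ratio · Benchmarks – DMSO wells and RFP-L50D-GFP cells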
PABP FP inh: blocks human PABP binding to poly(A) RNA. P11940. fluorescence polarization. inhibition, % at 35 µM. 1% of 290,000 active. AID 2014;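 active = 50% or more with normal probe brightness, or confirmed in later tests; inconclusive = above 50% with abnormal brightness, or retests that disagree; inactive = below 50% or failed in later tests; about a fifth of its hits are not listed in these tables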;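 also: calls also rest on retests at 20 µM and on dose response follow-up; controls were probe without protein and protein plus probe with vehicle; some compounds called inactive have numbers as strong as hits; many hits fall short of the cut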
Target sequence (P11940 whole entry, looked up): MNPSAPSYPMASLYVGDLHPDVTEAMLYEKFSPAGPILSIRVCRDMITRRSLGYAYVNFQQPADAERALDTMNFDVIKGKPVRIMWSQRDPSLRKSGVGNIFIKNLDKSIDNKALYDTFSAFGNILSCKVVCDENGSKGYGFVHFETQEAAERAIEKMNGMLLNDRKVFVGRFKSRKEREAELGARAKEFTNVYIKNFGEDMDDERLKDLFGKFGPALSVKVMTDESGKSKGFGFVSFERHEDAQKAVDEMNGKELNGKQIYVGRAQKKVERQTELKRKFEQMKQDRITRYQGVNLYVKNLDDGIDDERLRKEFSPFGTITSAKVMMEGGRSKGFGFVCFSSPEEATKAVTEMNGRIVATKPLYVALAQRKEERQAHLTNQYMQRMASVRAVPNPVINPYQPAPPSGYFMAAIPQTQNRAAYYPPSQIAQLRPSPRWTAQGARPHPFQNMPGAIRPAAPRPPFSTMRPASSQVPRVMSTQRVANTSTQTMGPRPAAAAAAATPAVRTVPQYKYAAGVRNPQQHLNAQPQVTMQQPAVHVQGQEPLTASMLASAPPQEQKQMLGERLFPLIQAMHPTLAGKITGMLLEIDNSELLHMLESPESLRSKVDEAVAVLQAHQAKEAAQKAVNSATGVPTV
eIF4H inh: inhibitors of RNA binding by human eIF4H | eIF4H fluorescence polarization binding assay | inhibition, % at 35 µM | 0.94% of 290,000 active;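 active = 50% or more with normal probe brightness, or confirmed in later tests; inconclusive = above 50% with abnormal brightness, or retests that disagree; inactive = below 50% or failed in later tests; about a fifth of its hits are not listed in these tables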;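 also: calls also rest on retests at 20 µM and on dose response follow-up; 0% = protein and probe with vehicle and 100% = probe without protein; strong numbers were not always called active; many hits fall short of the cut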
eIF4H inh retest: also measured in eIF4H inh; calls as there; inhibition, %; compound at 20 µM; confirmation average;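 mean of two retest wells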
PABP FP inh retest: further read-out of PABP FP inh, marked with its call; inhibition, %; compound at 20 µM; confirmation repeats;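 mean of two retest wells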
MT1-MMP act inh RFP: further read-out of MT1-MMP act inh, marked with its call; RFP signal change, %; measured here: RFP expression control read;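 0 = vehicle wells; hits needed this value within 50% of zero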
The depositor's hits bear a star; i = inactive; ? = inconclusive; . = not tested or not shown.

SMILES	Rce1 inh	Yeast UUG start	CSC inhib	Env fusion inh	MT1-MMP act inh	MT1-MMP act inh RFP	PABP FP inh	eIF4H inh	others
CCCCc1c(O)cc(C)[nH]c1=O	i	4	3	-3	3	4	6	7
CCOC(=O)COn1c(=O)c(-c2ccc(OCC)cc2)[n+]([O-])c2ccccc21	i	-3	-5	1	4	7	-1	-14
COc1ccc(-c2ccc3oc(-c4ccc(OC)cc4)c(C#CC4(O)CCCCC4)c3c2)cc1	i	37	77*	-1	10	0	.	.
CCOC(=O)c1ccc(CNC(=O)C2CCC(=O)N(Cc3cccc(OC)c3)C2)o1 (stereo unspecified)	i	12	7	0	-2	2	-5	-10
CCSc1nc(-c2cccnc2)ccc1C#N	i	-15	-15	20	-12	-8	-2	-10
CCOC(=O)CNC(=O)CN1CCC(c2nc3ccccc3[nH]2)CC1	i	-10	0	22	-4	0	-1	1
O=C(c1ccccc1F)N1CCN(c2ccc([N+](=O)[O-])c3cccnc23)CC1	i	.	-10	4	-4	-3	-2	-1
O=C(NCc1cccnc1)/C(=C/c1ccc(-c2cccc(C(F)(F)F)c2)o1)NC(=O)c1ccccc1	i	-18	1	20	3	-5	-3	-8
COc1cccc(CN2C(=O)C(C)N(C(=O)c3ccccc3)c3ccccc32)c1 (stereo unspecified)	i	-14	3	7	-6	-24	9	-8
COc1ccc(S(=O)(=O)N2CCCCCC2)cc1NC(=O)CN1C(=O)CNC1=O	.	-18	-16	34	4	5	.	.
COc1ccc(C2CC(c3ccccc3)=NN2C(=O)COC(=O)c2nc3nccc(C)n3n2)cc1 (stereo unspecified)	i	.	-5	-9	2	4	-11	-16
Cc1ccc(C(=O)NCCc2sc(C)nc2C)cc1	i	-18	-16	-20	2	4	36	2
O=C(CN1C(=O)NC(c2ccccc2)(c2ccccc2)C1=O)c1c[nH]c2ccccc12	i	.	5	.	.	.	8	21
CN(C)CCN=Cc1c(O)n(Cc2ccccc2)c(=O)c2ccccc12	i	-13	-3	-2	2	1	-1	-12
COc1ccc(C2N(c3cccc(Cl)c3)C(=O)C3CCCN32)cc1 (stereo unspecified)	i	-4	-3	-5	5	4	-3	3
Cc1cc(C)cc(Oc2cc(NC(=O)c3cn(C)nc3C)cc([N+](=O)[O-])c2)c1	i	-10	.	59*	9	-2	3	3
O=[N+]([O-])c1ccc(NS(=O)(=O)c2cccc3cccnc23)cc1	i	5	4	4	4	6	3	9
Cn1c(C(=O)OC(C(=O)NCc2ccco2)c2ccncc2)cc2sccc21 (stereo unspecified)	i	-22	-8	32	-5	-6	-7	-7
Cc1ccc(C2=NS(=O)(=O)N(C)C(C(=O)NCc3ccccn3)=C2)cc1	i	-19	-11	-10	-3	3	5	-6
CCCCSc1nc2sc3c(c2c(=O)[nH]1)CCC3	i	-13	.	.	-2	-5	-2	0
COc1cccc(CNC(=O)C(=O)N2CCC3(CC2)OCCN3S(=O)(=O)c2ccc(C)cc2)c1	i	20	8	-9	0	-3	.	.
CCCn1c(=N)c(C(=O)NC2CCCC2)cc2c(=O)n3cccc(C)c3nc21	i	-24	-2	.	5	4	1	3
Cc1ccc(COC(=O)c2nn(-c3ccccc3)nc2N)cc1	i	-3	6	-3	1	3	0	-10
Cc1cc(C(=O)Nc2sc3c(c2C#N)CCCCC3)cs1	i	-30	1	.	-3	1	20	18
CCCCOc1ccc(N(CC(=O)NCc2ccccc2)C(=O)c2csnn2)cc1	i	-16	11	-5	5	0	-14	5
COc1ccc(CNC(=O)C2CCN(C(=O)c3ccccc3)CC2)cc1	.	10	-7	-13	-3	1	4	4
O=C(N/C=C/c1ccc(Cl)cc1)NCc1ccc(Cl)cc1	i	-19	-3	.	-4	-7	0	5
O=C(O)CCC(=O)NNC(=O)COc1ccc2ccccc2c1Br	i	.	-6	1	4	1	2	-5
Cc1ncsc1CCOC(=O)c1ccc(N2CCOCC2)c([N+](=O)[O-])c1	i	.	30	-1	2	4	3	9
CC1CC(C)CN(CC(C)(C)NS(=O)(=O)c2ccc(Cl)cc2)C1 (stereo unspecified)	i	-6	10	-320	3	2	10	34
CC(C)C(NC(=O)CN1C(=O)c2cccc3cccc1c23)C(C)C	i	-3	-1	-4	0	-3	13	1
C=CCc1c(C)nc(N)[nH]c1=O	i	-5	-7	.	2	2	10	19
CCOC(=O)C(CCSC)NC(=O)CN (stereo unspecified)	.	-16	-2	-63	-8	-1	-1	2
CC1CCN(C(=O)C2CCCN(S(C)(=O)=O)C2)CC1 (stereo unspecified)	i	-13	0	.	-3	-3	-8	0
O=C(OCC(=O)N1CCCc2ccccc21)c1cncc(Br)c1	i	.	8	15	-5	-1	10	2
CCC/C(O)=C1\C(=O)CCCC1=NCCc1c(C)[nH]c2ccccc12	i	-8	.	13	-2	-3	-7	-4
O=C(Nc1cccc2ccccc12)OCc1cncs1	i	-9	-11	-9	-6	-1	6	0
O=C(O)c1cc(-n2cccc2)ccc1N1CCOCC1	i	-16	.	-20	0	0	12	5
C/C(CCc1ccco1)=N/NC(=O)CCC(=O)Nc1ccc(Br)cc1	i	.	2	14	-1	3	-11	-13
CCOC(=O)NC(=O)/C(C#N)=C\Nc1sccc1C(=O)OC	i	.	9	8	-19	-1	?	?
COc1cc(/C=C2\CCc3ccccc3C2=O)cc(OC)c1OC	i	5	-12	-4	5	-9	-7	-1
CCCCN1CC[C@H]2C=CC[C@@H](C(=O)Nc3ccc(Cl)c(C(F)(F)F)c3)[C@H]2C1=O	i	9	-7	32	4	1	.	.
CCN1CCCCC(=N/O)/C(=N/O)CCCC1	i	-19	-15	22	-5	0	-2	-6
O=C(Cn1cnc2ccccc21)N/N=C/c1ccccc1[N+](=O)[O-]	i	-20	8	-17	-2	-4	15	-10
O=C(NCCCN1CCOCC1)C(=O)NCCc1ccccc1	i	.	.	20	2	6	3	-8
CC(C)c1ccc(C(=O)NNC(=O)c2ccncc2)cc1	i	-18	.	-21	0	3	4	2
CCOC(=O)C1=C(c2ccccc2)O/C(=C(/C(=O)OC)C(F)(F)F)S1	i	-12	-2	.	-1	0	-4	-8
COc1ccc(C2CC(c3ccc(Cl)cc3Cl)n3nc(N)nc3N2)cc1 (stereo unspecified)	i	-14	16	7	6	1	4	5
CCOC(=O)N1CCN(C(=O)c2[nH]c(C(F)(F)F)nc2-c2ccccc2)CC1	.	2	.	-61	-2	-4	.	.
CCCCNC(=O)C1(C)CCCCN1C(=O)c1ccc2c(c1)CCO2 (stereo unspecified)	.	-7	.	15	5	5	.	.
O=C(Cc1ccccc1)CC(CC(=O)c1ccccc1)c1ccccc1 (stereo unspecified)	.	-36	.	-53	-8	-7	.	.
Cc1c(C(=O)N2CCOCC2)cc(C(C)(C)C)n1-c1ccccc1	i	.	64	7	1	-1	-2	4
CCOC(=O)N1CCC(N(CCN(C)C)C(=S)Nc2cccc(OC)c2)CC1	i	-2	-8	4	-1	1	16	2
CCCC(=O)Nc1ccc2c(c1)nc1n2CCSC1	i	-28	-4	-79	-2	3	-9	-9
Cc1ccc(-n2nnnc2C(Cl)(Cl)c2nnnn2-c2ccc(C)cc2)cc1	i	.	53	.	5	-6	3	-19
O=[N+]([O-])c1nn(-c2cccc(Cl)c2)n(O)c1=NCc1cccnc1	i	.	-2	-24	0	1	7	21
CCN(CCNCC(O)COCc1ccc(Cl)cc1)c1cccc(C)c1 (stereo unspecified)	i	.	13	40	1	1	67	14*	eIF4H inh retest=97*;PABP FP inh retest=26
CCn1c(-c2cc(-c3ccccc3OC)nc3ccccc23)n[nH]c1=S	i	-2	-5	-10	-2	-1	5	2
Cc1cc(-c2csc(N)n2)c(C)n1CCc1ccccc1	i	-6	-4	-57	-16	5	?	?
COc1cccc(C(=O)N2CCC(C(=O)NCc3ccc(C)cc3)CC2)c1	i	-12	-7	-3	7	3	24	-4
(next part)
SMILES	Rce1 inh	Yeast UUG start	CSC inhib	Env fusion inh	MT1-MMP act inh	MT1-MMP act inh RFP	PABP FP inh	eIF4H inh	others
CCOc1ccccc1N(C(=O)c1ccco1)C(C(=O)NC1CCCC1)c1cccs1 (stereo unspecified)	i	1	.	?	-1	0	2	4
Cc1ccc(C(=O)NCc2ccco2)cc1S(=O)(=O)Nc1cccc(C)c1C	i	-4	0	-27	-2	-1	6	-2
CC(C)CN(CC(C)C)C(=O)CC(=O)NC(=O)c1ccc(Cl)cc1	i	14	-3	.	1	2	0	7
Cc1ccc(C(=O)O)cc1NC(=O)C1=CSCCO1	i	-7	-6	1	3	7	5	3
Cc1ccc(C)c(NS(=O)(=O)c2ccc(OCC(=O)N3CCOCC3)cc2)c1	i	18	-1	.	0	-4	18	-5
COc1cc([N+](=O)[O-])ccc1NC(=O)CSc1ccccn1	i	.	-9	.	0	-7	15	6
O=C(C1CC(=O)N(c2ccc(F)cc2)C1)N1CCCCC1 (stereo unspecified)	i	-10	6	3	5	11	-1	3
Cc1nn(C2CCS(=O)(=O)C2)c(Cl)c1/C=C/C(=O)OCC(=O)Nc1ccccc1OC(F)F (stereo unspecified)	i	.	-6	.	-3	-7	7	-1

By substructure, the compounds so far containing an aryl thioether with sulfur outside any ring.
SMILES	Rce1 inh	Yeast UUG start	CSC inhib	Env fusion inh	MT1-MMP act inh	MT1-MMP act inh RFP	PABP FP inh	eIF4H inh	others
CCSc1nc(-c2cccnc2)ccc1C#N	i	-15	-15	20	-12	-8	-2	-10
CCCCSc1nc2sc3c(c2c(=O)[nH]1)CCC3	i	-13	.	.	-2	-5	-2	0
COc1cc([N+](=O)[O-])ccc1NC(=O)CSc1ccccn1	i	.	-9	.	0	-7	15	6

5 entries picked at random from those above, as already listed:
SMILES	Rce1 inh	Yeast UUG start	CSC inhib	Env fusion inh	MT1-MMP act inh	MT1-MMP act inh RFP	PABP FP inh	eIF4H inh	others
CC(C)CN(CC(C)C)C(=O)CC(=O)NC(=O)c1ccc(Cl)cc1	i	14	-3	.	1	2	0	7
CCOc1ccccc1N(C(=O)c1ccco1)C(C(=O)NC1CCCC1)c1cccs1 (stereo unspecified)	i	1	.	?	-1	0	2	4
Cc1ccc(C)c(NS(=O)(=O)c2ccc(OCC(=O)N3CCOCC3)cc2)c1	i	18	-1	.	0	-4	18	-5
Cc1ccc(C(=O)O)cc1NC(=O)C1=CSCCO1	i	-7	-6	1	3	7	5	3
Cc1ccc(C(=O)NCc2ccco2)cc1S(=O)(=O)Nc1cccc(C)c1C	i	-4	0	-27	-2	-1	6	-2
